Bioassay records deposited in PubChem by National Center for Advancing Translational Sciences (NCATS).
LASV entry inh – qHTS for Inhibitors of binding or entry into cells for Lassa Virus. Lassa virus pseudotype entry inhibition, cell reporter; control for the full effect not named in the record. Potency, µM (highest dose often 37.9 µM), for the others: top-dose activity change, negative = inhibition, usual class: inhibitors. hit rate 1.2% among 300,000. AID 540256, 2011; active means well fitted inhibition curve with a large enough effect; inconclusive means small, poorly fitted or top-dose-only effect, or effect the other way; inactive means flat fitted curve, though single readings scatter; tested in HEK293 cells; also: % is scaled to controls: 0 for no effect and ±100 for the full control effect; nearly all actives have a fitted effect of over 50% in size; luciferase read-out
Cruzain inh noDet – qHTS Assay for Promiscuous and Specific Inhibitors of Cruzain (without detergent); Potency, µM, without a hit: max response, negative = inhibition, hits mostly inhibitors; purified cruzain, Z-FR-AMC fluorescence, no detergent; hit rate 2.3% among 200,000; Cruzipain (Trypanosoma cruzi), P25779; AID 1476, 2009; active = well fitted curve in the direction sought with a large enough effect; inconclusive = small, poorly fitted or top-dose-only effect, or another doubt; inactive = no such curve, though single readings can be large; an effect the other way counts as inactive or inconclusive;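 also: plate controls were enzyme without inhibitor for no effect and buffer without enzyme for full effect; nearly all actives have a fitted effect of over 40% in size; top concentration of the series not given in the record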
Target sequence (P25779 123-467 limits assumed): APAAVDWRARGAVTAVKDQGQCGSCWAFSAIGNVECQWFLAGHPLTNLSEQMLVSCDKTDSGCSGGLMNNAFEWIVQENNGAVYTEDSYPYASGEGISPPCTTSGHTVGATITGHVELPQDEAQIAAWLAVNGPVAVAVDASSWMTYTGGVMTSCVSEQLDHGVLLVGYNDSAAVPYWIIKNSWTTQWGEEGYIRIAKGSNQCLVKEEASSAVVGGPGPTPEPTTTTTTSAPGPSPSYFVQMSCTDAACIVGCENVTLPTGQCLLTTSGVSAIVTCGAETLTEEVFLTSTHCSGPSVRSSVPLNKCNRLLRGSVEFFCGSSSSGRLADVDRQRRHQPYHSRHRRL
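Detergent-free condition (0.00005% Triton X-100) in acetate buffer pH 5.5 with DTT. 1.5 nM enzyme and compound were pre-mixed 15 min, then 2 uM Z-FR-AMC substrate added; reaction progress from fluorescence change between first and third reads (60 s).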
SARS PLP yeast – qHTS of Yeast-based Assay for SARS-CoV PLP; S. cerevisiae expressing SARS-CoV PLpro, growth rescue; control for the full effect not named in the record; Potency, µM (doses to about 32.9 µM), inactives show at the highest dose activity, positive = growth rescue; hit rate 0.19% among 330,000; AID 485353, 2010; also: 0% is about no effect; nearly all actives have a fitted effect of over 55% in size; growth read by luminescence after 48 h
NS1 inh – qHTS Assay for Inhibitors of Influenza NS1 Protein Function. hit rate 0.4% among 270,000. Potency, µM (series often up to 46.1 µM), for the others: at the top dose activity, positive = more growth. S. cerevisiae slowed by influenza A NS1, growth recovery by OD600; also: actives are rising curves; nearly all actives have a fitted effect of over 50% in size
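S. cerevisiae expressing influenza A NS1, grown in glucose, washed, then diluted 1:100 into pH 6.0 -URA galactose medium with 23 nl compound. Growth recovery read as OD600; NS1-free strain serves as control.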
2A StopGo – High Throughput Screening for Foot and Mouth Disease Virus Antivirals; human cells with a luciferase reporter of 2A StopGo recoding; control for the full effect not named in the record; Potency, µM (series often up to 57.9 µM), for inactives: at the highest dose signal change, negative = less light; hit rate 1.2% among 410,000; active = well fitted falling curve with a large enough effect; inconclusive = small, poorly fitted or top-dose-only effect; inactive = no such curve, though single readings can be large or run the other way; tested in HEK293T cells; also: % is scaled to controls: 0 for no effect and ±100 for the full control effect; nearly all actives have a fitted effect of over 45% in size; luciferase light after 4 h
RE007 growth inh – qHTS Assay for Inhibitors of the HIV-1 protein Vpr | S. pombe RE007 Vpr strain, BacTiter-Glo ATP luminescence, 24 h; control for the full effect not named in the record | Potency, µM (top dose mostly 92.2 µM), for inactives: at the highest dose activity change, negative = less growth | hit rate 0.21% among 360,000 | AID 651644, 2012; active = well fitted falling curve with a large enough effect; inconclusive = small, poorly fitted or top-dose-only effect; inactive = no such curve, though single readings can be large or run the other way;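 also: % is scaled to controls: 0 for no effect and ±100 for the full control effect; nearly all actives have a fitted effect of over 50% in size; the assay follows cell death caused by Vpr and the record does not say whether a fall means rescue or toxicity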
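Fission yeast strain RE007, carrying one chromosomally integrated HIV-1 vpr copy, was seeded at OD 0.01 in PMG+AL medium with 23 nL pinned compound. After 24 h at 30 °C and 99% humidity, viability was read by BacTiter-Glo luminescence.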
MARV entry inh – qHTS for inhibitors of binding or entry into cells for Marburg Virus. Marburg virus pseudotyped entry inhibition, cell reporter; control for the full effect not named in the record; about a third of the inactives were read at about 46 µM. Potency, µM (titrated, usually from 37.8 µM), without a hit: at the highest dose activity change, negative = inhibition, usual class: inhibitors. hit rate 1.8% among 300,000; active = well fitted inhibition curve with a large enough effect; inconclusive = small, poorly fitted or top-dose-only effect, or effect the other way; inactive = flat fitted curve, though single readings scatter; tested in HEK293 cells; about a fifth of its hits are not listed in these tables; also: % is scaled to controls: 0 for no effect and ±100 for the full control effect; luciferase read-out
Cruzain Triton – qHTS Assay for Promiscuous and Specific Inhibitors of Cruzain (with detergent) | Cruzipain (Trypanosoma cruzi), P25779 | hit rate 0.43% among 200,000 | purified cruzain, Z-FR-AMC fluorescence, 0.01% Triton | Potency, µM, inactives show max response, negative = inhibition, actives largely listed as inhibitors; active = well fitted curve in the direction sought with a large enough effect; inconclusive = small, poorly fitted or top-dose-only effect, or another doubt; inactive = no such curve, though single readings can be large; an effect the other way counts as inactive or inconclusive;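 also: plate controls were neutral wells for no effect and buffer without enzyme for full effect; nearly all actives have a fitted effect of over 40% in size; top concentration of the series not given in the record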
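Enzyme 1.5 nM, Z-FR-AMC 2 uM, NaOAc 100 mM pH 5.5, DTT 5 mM, Triton X-100 0.01%; 15 min RT compound preincubation; kinetic ex360/em450, 60 s delta.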
Numbers without * were called inactive; ? = inconclusive; . = not tested or not shown; & = joins results of further samples; [ ] = another dose, or the depositor's remark. Unless noted, calls follow the shape of the dose curve; as a rule, active means well fitted rising curve with a large enough effect; inconclusive means small, poorly fitted or top-dose-only effect; inactive means no such curve, though single readings can be large or run the other way. Potency is read from the fitted curve at half-maximal effect.

SMILES	LASV entry inh	Cruzain inh noDet	SARS PLP yeast	NS1 inh	2A StopGo	RE007 growth inh	MARV entry inh	Cruzain Triton
COc1ccc(N(CC(=O)NC2CCCC2)C(=O)Cn2nnc(-c3ccc(C)o3)n2)cc1	.	.	13%	15%	3%	9%	5%[46.1 µM]	.
O=C(CN1CCOCC1)Nc1cccc(C(=O)Nc2cccc(C(F)(F)F)c2)c1	-4%	1%	1%	2%	0%	5%	?	-5.5%
Cc1nc2ccccc2c(=O)n1-c1ccc(-c2ccccc2)cc1	.	.	-3%	-2%	?	2%	.	.
CCN(CC)CCNC(=O)c1cc2c(=O)n(CC)c3ccccc3c2s1	3%[46.1 µM]	.	1%	-5%	2%	?	-16%[46.1 µM]	.
COc1ccc(NC(=O)CSc2ncc3c(n2)-c2cc(Cl)ccc2N(Cc2ccccc2F)S3(=O)=O)cc1	-11%[46.1 µM]	-15%	.	.	5%	.	.	1.2%
CCn1c(=N)n(CC(O)COc2ccc(C)cc2)c2ccccc21 (centres undefined)	9%	.	-2%	1%	0%	-7%	?	.
Cc1c(Cl)cnc(NC(=O)COC(=O)C(NC(=O)c2ccco2)C(C)C)c1Cl (centres undefined)	-2%	-13%	-3%	-8%	?	5%	1%&1%	-11%
COc1ccc(N2CCN(C(=O)c3cccc(NS(=O)(=O)c4cccc(F)c4)c3)CC2)cc1	-17%[46.1 µM]	.	-1%	10%	-1%	2%	23%[46.1 µM]	.
O=C(Nc1cccc(Cl)c1)Nc1ccc(Br)cc1F	?	-13%	-3%	-38%	-19%	6%	?	-4.2%
CCCN1CCN(C(=O)c2cc3c(s2)-c2ccccc2OC3)CC1	.	.	-6%	-10%	51%[activator]	-18%	.	.
Cc1ccnc(NS(=O)(=O)c2ccc(NC(=O)C3CCCCC3)cc2)n1	8%	-5%	1%	-7%	.	-5%	2%	-0.5%
CCOCCCN(C(=O)c1snc(C(N)=O)c1N)C(C(=O)NCCC(C)C)c1ccc(F)cc1 (centres undefined)	.	.	-4%	6%	-4%	-15%	.	.
CCc1nnc(NC(=O)CSc2nnc(CNc3ccc(Cl)cc3)o2)s1	8%	3%	-4%	-8%	-18%	5%	?	1.4%
COc1cc(C2c3c(oc4ccccc4c3=O)C(=O)N2CCN2CCOCC2)cc(OC)c1OC (centres undefined)	3%	3%	-1%	-2%	-15%	2%	15%	-0.2%
O=C(O)c1ccc(N2C(=O)CC(SC(=NCc3ccc4c(c3)OCO4)Nc3ccccc3)C2=O)cc1 (centres undefined)	.	.	-2%	9%	-4%	-6%	.	.
COC(=O)N/N=C\c1c(C)[nH]n(-c2ccccc2)c1=O	5%	.	-3%	4%	-8%	3%	?	.
C=CCn1c(SC(C)C(=O)NC2CC2)nnc1-c1ccoc1C (centres undefined)	1%	.	-4%	.	-3%	-12%	2%	.
CCOC(=O)C1(CCc2ccccc2)CCN(C(=O)CN2CCOC2=O)CC1	10%[46.1 µM]	.	1%	-2%	16%	-7%	?	.
CC(C)COC(=O)C(C)Nc1n[nH]c(=S)[nH]c1=O (centres undefined)	-13%[46.1 µM]	.	0%	5%	0%	54%	0%[46.1 µM]	.
CN(C)C(=O)CSC1c2ccccc2C(=O)N1c1ccccc1 (centres undefined)	5%	2%	-6%	21%	26%	5%	7%	-5.8%
Cc1nn(-c2ccccc2)c(Cl)c1/C=C1\SC(=S)NC1=O	-16%	-20%	-12%	-45%	.	8%	-19%	-20%
Cc1cccc(S(=O)(=O)C(C#N)c2nc3ccccc3nc2N2CCOCC2)c1 (centres undefined)	-15%	?	-1%	-34%	-8%	-4%	-1%	-7.2%
Cc1cccc(NC(=O)c2cccc(NC3=NC4CS(=O)(=O)CC4S3)c2)c1 (centres undefined)	.	.	1%	-6%	-7%	6%	.	.
Cc1nn(-c2ccccc2)c(OC(=O)c2ccc(F)cc2)c1S(=O)(=O)c1ccccc1	?	-2%	.	.	9%	.	-11%[46.1 µM]	-0.2%
CCC(CC)C(=O)N=C1SC2CS(=O)(=O)CC2N1CCc1ccc(OC)c(OC)c1 (centres undefined)	-12%	.	4%	-2%	-6%	-2%	10%	.
CN(C)C(=O)CSc1cccc2cccnc12	3%	6%	-1%	5%	?	?	?	-2.1%
O=C(c1ccc(F)cc1F)N1CCN(c2ccccn2)CC1	?	.	6%	-1%	-5%	-6%	-2%[46.1 µM]	.
CCCCCNC(=O)C1CCC(Cn2c(=O)c3sccc3n(CC)c2=O)CC1 (centres undefined)	1%[46.1 µM]	4%	.	.	-10%	.	.	-2.7%
CCn1c(=O)cc(SCC(=O)N2CCN(c3ccccc3F)CC2)c2ccccc21	6%[46.1 µM]	?	-6%	-47%	?	6%	?	-0.1%&-6.9%
C=C(C)C1CC=C(CN2CCC(C(=O)OCC)CC2)CC1 (centres undefined)	-16%	13%	-6%	-12%	12%	-2%	?	1.1%
COc1ccccc1-c1nnc(SC/C(O)=C(\C#N)c2nc3ccccc3[nH]2)n1C1CCCCC1	-9%	-29%	8%	?	0%	-7%	?	-11%
Cn1c(-c2ccc(F)cc2)cnc1NCc1ccccc1	9%	-10%	0%	-3%	6%	0%	23µM*	-0.9%
COc1cc(C2C(C#N)=C(N)OC3=C2C(=O)CCC3)c([N+](=O)[O-])cc1OC (centres undefined)	-11%	-2%	0%	27%	5%	3%	-8%[46.1 µM]	-1.9%
Cn1c(SCC(=O)N2CCCCCC2)nnc1-c1ccco1	.	.	0%	7%	15%	-27%	?	.
Cc1ccccc1Nc1nnc(-c2ccc(C)c(S(=O)(=O)N3CCN(C)CC3)c2)c2ccccc12	-19%[46.1 µM]	11%	.	.	-28%	.	?	-1.9%
O=C(CN1C(=O)/C(=C/c2ccc(F)cc2)SC1=S)NC1CCS(=O)(=O)C1 (centres undefined)	.	.	3%	5%	10%	10%	.	.
COc1ccc(N=C2NC(=O)C(CO)(CO)S2)cc1	.	.	1%	-2%	1%	2%	.	.
O=c1ccc2cc(S(=O)(=O)Nc3ccc(OC(F)(F)F)cc3)ccc2[nH]1	-9%[46.1 µM]	9%	.	.	-13%	.	.	-10.0%
COCCn1c(SCC(=O)Nc2cccc(S(N)(=O)=O)c2)nc2ccccc21	-7%	-9%	-8%	8%	-5%	7%	-26%	3.6%
CCCCN1CCc2c([nH]c3ccccc23)C1=O	5%	?	-1%	-16%	37%[activator]	-5%	?	-4.8%
Cc1ccc(NC(=O)CCn2nc(-c3ccccc3)c3ccccc3c2=O)c(C)c1	-28%[46.1 µM]	3%	.	.	-24%	.	?	-4.9%
COc1cccc(C2CC(=O)Nc3c2ccc(C)c3C)c1OC (centres undefined)	-25%[46.1 µM]	-3%	.	.	-28%	.	2%[46.1 µM]	-3.5%
CC(C)NC(=O)/C(=N\O)c1ccccc1	15%	1%	0%	5%	24%	-7%	15%	5.8%
CC1CCCN(C2(O)C(=O)Nc3c(C(F)(F)F)cccc32)C1 (centres undefined)	.	.	0%	3%	8%	22%	.	.
O=C(O)COCC(=O)Nc1ccc2c(c1)CCC2	13%	-11%	-3%	-7%	18%	-6%	20%	3.0%
Cc1ccc(NC(=O)c2c(C)noc2C)cc1S(=O)(=O)N1CCOCC1	0%	.	-3%	.	-24%	3%	-1%	.
O=S(=O)(c1ccccc1F)N1CCCc2ccccc21	.	.	-1%	-4%	-23%	-16%	.	.
O=C(Cn1c(=S)[nH]c2ccccc2c1=O)N1CCN(c2ccccc2)CC1	.	.	0%	.	-21%	11%	-1%[46.1 µM]	.
COc1ccc(/C=N/N2C(C)CCCC2C)cc1O (centres undefined)	2%	.	-3%	-2%	42%[activator]	3%	?	.
C/C=C\C=C/C(=O)Nc1cccc(C2=NOC3(C2)C[C@@H](C(N)=O)N(C(=O)c2ccc(Cl)cc2)C3)c1 (some centres undefined)	.	.	0%	-6%	6%	-7%	.	.

Later entries
SMILES	LASV entry inh	Cruzain inh noDet	SARS PLP yeast	NS1 inh	2A StopGo	RE007 growth inh	MARV entry inh	Cruzain Triton
O=C1NCCCC1C(=O)N/N=C/c1cc([N+](=O)[O-])ccc1O (centres undefined)	15%	.	-2%	-97%	-5%	-4%	-1%[46.1 µM]	.
O=C(CCCc1cccs1)Nc1nccs1	-1%[46.1 µM]	.	-1%	.	14%	5%	?	.
C=CCOC(=O)N1CCN(c2cccc(C(F)(F)F)c2)CC1	?	20%	-15%	-33%	0%	-27%	1%	-7.7%
Cc1ccc(NC(=O)CNc2cc(S(=O)(=O)N3CCOCC3)ccc2NCC2CCCO2)cc1F (centres undefined)	8%	.	4%	-42%	11%	1%	-3%	.
O=C(/C=C/c1ccccc1)N/C(=C/c1ccccc1)C(=O)Nc1ccc(C(=O)O)cc1	1%	-15%	12%	-8%	-7%	-13%	-2%	-2.2%
CCOc1cc(N2CCOCC2)c(OCC)cc1NC(=O)CCS(=O)(=O)c1ccc(Cl)cc1	-25%	?	2%	-2%	-8%	-4%	-4%&-4%	-1.2%
CC1CCc2c(sc3ncn(N)c(=N)c23)C1 (centres undefined)	.	.	-2%	-5%	-28%	-17%	.	.
O=C1NC2(CCCCCC2)C(=O)N1Cc1ccccc1Br	7%[46.1 µM]	.	-15%	-10%	13%	-2%	-26%[46.1 µM]	.
CSc1nc(-c2ccccc2)c(-c2ccccc2)[nH]1	-2%	-19%	6%	10%	-21%	20%	-25%	0.9%
CCOC(=O)c1cc(-c2ccccc2)sc1NC(=O)c1ccc(OC)cc1	9%	-30%	-1%	-3%	0%	2%	4%	1.4%
Cc1ccc2cccc(Oc3cnccn3)c2n1	0%	6%	7%	11%	12%	3%	-14%	1.9%
CNC(=O)CSc1nnc(-c2ccco2)n1-c1cccc(C)c1C	-10%	.	0%	10%	-1%	-2%	-12%	.
